HIV Env fusion = inhibitors of HIV Env-mediated cell fusion | HeLa-JRFL Env/CEM21 cell fusion, luciferase | inhibition, % at 12.3 µM | 360,000 tested, 1.1% active;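 active means mean replicate inhibition score of at least 50 and every replicate individually at or above 50; inconclusive means only one of the two criteria met; inactive means mean below 50 and not all replicates reaching 50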;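 further: 0% = plate neutral controls and 100% = maraviroc near 300 nM; one replicate is shown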
The depositor's hits bear a star; ? = inconclusive; [ ] = another dose, or the depositor's remark. An excerpt, so the mix of outcomes need not match the whole.

HIV Env fusion	SMILES
-77.5	COc1ccc(OC)c(CN2C(=O)c3ccccc3C2c2nnnn2-c2ccc3c(c2)OCCO3)c1 (configuration not stated)
-17.7[16.7 µM]	C[C@H](NC(=O)C[C@H]1CC[C@@H]2[C@@H](COc3ccc(NS(=O)(=O)c4ccc(Cl)cc4)cc3C(=O)N2C)O1)c1ccccc1
4.7	C[C@@H]1C=CCCO[C@]12C(=O)N(Cc1ccc(Br)cc1)c1ccccc12
-1.3[16.7 µM]	Cc1ccc(S(=O)(=O)N[C@@H]2CC[C@H](CC(=O)N3CCc4ccccc4C3)O[C@H]2CO)cc1
4.9[16.7 µM]	CO[C@H]1CN(C)C(=O)c2ccc(NC(=O)c3cnccn3)cc2OC[C@@H](C)NC[C@@H]1C
-1.6[16.7 µM]	COCC(=O)Nc1ccc2c(c1)[C@H]1C[C@@H](CC(=O)NCc3ccccc3F)O[C@H](CO)[C@H]1O2
-18.1[16.7 µM]	C[C@H]1CN([C@@H](C)CO)C(=O)c2cc(NC(=O)C3CC3)ccc2O[C@H]1CN(C)C(=O)Nc1ccc(F)cc1
-11.4[16.7 µM]	CNC[C@@H]1Oc2cc(C#CC3CCCCC3)ccc2S(=O)(=O)N([C@H](C)CO)C[C@H]1C

5 entries out of the list, ordered by molar mass, descending:
HIV Env fusion	SMILES
-17.7[16.7 µM]	C[C@H](NC(=O)C[C@H]1CC[C@@H]2[C@@H](COc3ccc(NS(=O)(=O)c4ccc(Cl)cc4)cc3C(=O)N2C)O1)c1ccccc1
-18.1[16.7 µM]	C[C@H]1CN([C@@H](C)CO)C(=O)c2cc(NC(=O)C3CC3)ccc2O[C@H]1CN(C)C(=O)Nc1ccc(F)cc1
-1.6[16.7 µM]	COCC(=O)Nc1ccc2c(c1)[C@H]1C[C@@H](CC(=O)NCc3ccccc3F)O[C@H](CO)[C@H]1O2
-11.4[16.7 µM]	CNC[C@@H]1Oc2cc(C#CC3CCCCC3)ccc2S(=O)(=O)N([C@H](C)CO)C[C@H]1C
4.7	C[C@@H]1C=CCCO[C@]12C(=O)N(Cc1ccc(Br)cc1)c1ccccc12

The main list resumes, repeating the 3 entries before the break.
HIV Env fusion	SMILES
-1.6[16.7 µM]	COCC(=O)Nc1ccc2c(c1)[C@H]1C[C@@H](CC(=O)NCc3ccccc3F)O[C@H](CO)[C@H]1O2
-18.1[16.7 µM]	C[C@H]1CN([C@@H](C)CO)C(=O)c2cc(NC(=O)C3CC3)ccc2O[C@H]1CN(C)C(=O)Nc1ccc(F)cc1
-11.4[16.7 µM]	CNC[C@@H]1Oc2cc(C#CC3CCCCC3)ccc2S(=O)(=O)N([C@H](C)CO)C[C@H]1C
-5.2[16.7 µM]	COc1ccc(CN2C[C@@H](O)COC[C@@H]3O[C@@H](CC(=O)N(C)C)CC[C@H]32)cc1
3.5[16.7 µM]	C[C@@H]1CN([C@@H](C)CO)C(=O)c2cc(NC(=O)c3ccncc3)ccc2O[C@@H](C)CCCCO[C@@H]1CN(C)CC1CCCCC1
-6.0	CCCCCCCCN1C(=O)[C@@H](CC(=O)N2CCC(c3ccccc3)CC2)C[C@@]2(C(=O)OC)C1=C[C@H](C1CCCC1)O[C@@H]2C
11.1	COC(=O)[C@]12C[C@H](CC(=O)NCC3CCCCC3)C(=O)N(Cc3ccc4c(c3)OCO4)C1=C[C@H](C(C)(C)C)O[C@@H]2C
12.6[16.7 µM]	C[C@H]1CN([C@@H](C)CO)C(=O)Cc2cc(NS(=O)(=O)c3ccc(Cl)cc3)ccc2O[C@@H]1CN(C)Cc1ccc(-c2ccccc2)cc1
-61.7	O=C(CCc1c[nH]c2ccccc12)Nc1ccc(Oc2cccnc2)cc1
8.8[16.7 µM]	CC(C)C#Cc1ccc2c(c1)O[C@H](CN(C)C(=O)C1CCC1)[C@@H](C)CN([C@H](C)CO)S2(=O)=O
-7.5[16.7 µM]	CC(=O)N1[C@@H]2Cn3c(ccc(C4=CCCCC4)c3=O)[C@H]1[C@@H](C(=O)N[C@H](C)c1ccccc1)[C@@H]2CO
-7.5[16.7 µM]	COc1ccc(NC(=O)Nc2ccc3c(c2)[C@@H]2C[C@H](CC(=O)NCc4ccccn4)O[C@H](CO)[C@@H]2O3)cc1
1.2[16.7 µM]	C[C@@H]1CN([C@H](C)CO)C(=O)c2cc(NC(=O)CCC(F)(F)F)ccc2O[C@@H]1CN(C)Cc1ccc(Cl)c(Cl)c1
-2.9[16.7 µM]	O=C(NC1CCCC1)N1CC(=O)N2[C@H](CO)[C@H](c3ccc(C4=CCCC4)cc3)[C@@H]2C1
-29.2[16.7 µM]	COc1ccc2c3c(n(C)c2c1)[C@@H](CO)N(CC1CC1)CC31CN(C(=O)c2cccc(F)c2)C1
-12.9	O=C(N[C@@H](Cc1ccccc1)c1nc2ccccc2[nH]1)c1ccc([N+](=O)[O-])cc1
?	O=C(Nc1cccnc1)c1ccc(CSc2ccc(Cl)cc2)o1
16.3[16.7 µM]	CCCN(C)C[C@H]1OCCCC[C@H](C)Oc2ccc(NC(=O)c3ccncc3)cc2C(=O)N([C@H](C)CO)C[C@H]1C
-0.1[16.7 µM]	CN(C)CC(=O)Nc1ccc2c(c1)[C@@H]1C[C@@H](CC(=O)NC3CCCCC3)O[C@@H](CO)[C@@H]1O2
-88.4[16.7 µM]	O=C(N[C@H]1C=C[C@H](CC(=O)N2CCCCC2)O[C@H]1CO)c1ccc2c(c1)OCO2
-83.0	COC(=O)C1=C(C)N(Cc2ccccc2C(F)(F)F)C(=NCc2ccc(OC)cc2)NC1c1ccc(Cl)cc1 (configuration not stated)
21.7[16.7 µM]	COc1ccccc1S(=O)(=O)N[C@H]1CC[C@@H](CC(=O)NCc2cccc(F)c2)O[C@@H]1CO
12.9	Fc1ccc2nc(-c3ccc(CN4CCC5(CC4)CNc4ccccc45)cc3)c(-c3ccccc3)nc2c1
5.2[16.7 µM]	CC(C)NC(=O)Nc1ccc2c(c1)C(=O)N([C@H](C)CO)C[C@H](C)[C@H](CN(C)C(=O)CCCN(C)C)OCCCC[C@H](C)O2
-0.1[16.7 µM]	CN(C)C(=O)[C@@H]1[C@@H](CO)[C@@H]2Cn3c(cccc3=O)[C@H]1N2C(=O)c1ccc(F)cc1
2.4[16.7 µM]	COc1ccc(NC(=O)Nc2cccc3c2O[C@H](CN(C)Cc2ccc4c(c2)OCO4)[C@@H](C)CN([C@@H](C)CO)C3=O)cc1
10.8	C=CCNC(=S)N1C[C@H]2CON(C)[C@H]2C[C@H]1c1ccccc1Br
-4.6[16.7 µM]	CN1C(=O)c2cc(NC(=O)Cc3cccs3)ccc2OC[C@@H]2O[C@H](CC(=O)NCCCN3CCOCC3)CC[C@H]21
-33.1	COC(=O)C1=C(C)N(C)C(=NCc2cccc(C(F)(F)F)c2)NC1c1ccccc1C(F)(F)F (configuration not stated)
-8.5[16.7 µM]	CO[C@H]1CN(C)C(=O)c2cc(NS(=O)(=O)Cc3ccccc3)ccc2OC[C@H](C)NC[C@@H]1C
9.4[16.7 µM]	CO[C@@H]1CN(C)C(=O)c2ccc(NS(C)(=O)=O)cc2OC[C@H](C)N(Cc2nccs2)C[C@@H]1C
3.6[16.7 µM]	C[C@H](CO)N1C[C@H](C)[C@@H](CN(C)Cc2ccc(Cl)c(Cl)c2)Oc2ccc(NC(=O)CCC(F)(F)F)cc2C1=O
12.7[16.7 µM]	CCCC(=O)Nc1ccc2c(c1)OC[C@@H](C)NC[C@H](C)[C@@H](OC)CN(C)C2=O
-9.1[16.7 µM]	C[C@@H]1CCCCO[C@@H](CN(C)C(=O)c2ccncc2)[C@H](C)CN([C@H](C)CO)C(=O)c2cc(NC(=O)c3ccccc3)ccc2O1
-0.3[16.7 µM]	CO[C@H]1CN(C)C(=O)c2cc(NC(C)=O)ccc2OC[C@H](C)N(C(=O)c2ccc(F)cc2)C[C@@H]1C
-10.4[16.7 µM]	CC=Cc1ccc2n(c1=O)C[C@H]1[C@H](CO)[C@@H](C(=O)N[C@@H](C)c3ccccc3)N(C(=O)c3cnccn3)[C@@H]21 (mixture of isomers)
-16.6[16.7 µM]	COc1ccccc1CNC(=O)C[C@H]1CC[C@H]2[C@H](COc3ccc(NS(=O)(=O)c4ccc(C)cc4)cc3C(=O)N2C)O1
-10.3[16.7 µM]	COC(=O)C[C@@H]1CC[C@@H]2[C@H](COc3ccc(NS(=O)(=O)c4ccc(F)cc4)cc3C(=O)N2C)O1
7.4[16.7 µM]	C[C@H](CO)N1C[C@H](C)[C@H](CN(C)S(=O)(=O)c2ccc(F)cc2)Oc2ccc(NS(=O)(=O)c3cn(C)cn3)cc2CC1=O
-86.9[16.7 µM]	CC(C)NC(=O)Nc1ccc2c(c1)C(=O)N([C@H](C)CO)C[C@H](C)[C@@H](CN(C)C(=O)Cc1ccccc1)OCCCC[C@H](C)O2
-10.3[16.7 µM]	O=C(C[C@H]1C[C@H]2c3cc(NC(=O)Nc4ccccc4F)ccc3O[C@H]2[C@H](CO)O1)NC1CCCCC1
-17.6[16.7 µM]	COc1ccccc1CNC(=O)C[C@H]1CC[C@H]2[C@@H](COc3ccc(NC(=O)c4ccno4)cc3C(=O)N2C)O1
-34.9[16.7 µM]	Cc1noc(C)c1NC(=O)Nc1cccc2c1O[C@@H](CN(C)S(=O)(=O)c1ccccc1)[C@@H](C)CN([C@H](C)CO)C2=O
-1.5[16.7 µM]	C[C@@H]1CN([C@H](C)CO)C(=O)c2cc(NC(=O)CCCN(C)C)ccc2O[C@H]1CN(C)C(=O)Nc1ccc2c(c1)OCO2
-70.3[16.7 µM]	COc1ccc2c3c([nH]c2c1)[C@H](CO)N(Cc1ccccc1)CC31CN(C(=O)c2cccnc2)C1
11.6[16.7 µM]	C[C@H](CO)N1C[C@H](C)[C@@H](CN(C)S(=O)(=O)c2cccs2)OCc2ccccc2-c2c(n(C)c3ccccc23)C1=O
-11.3	CCc1c(-c2cccc(Cl)c2)ncn1CCc1ccccc1OC
-6.5[16.7 µM]	O=C(Nc1cc(F)ccc1F)N[C@@H]1CC[C@@H](CCn2cc(C3CC3)nn2)O[C@H]1CO
17.2[16.7 µM]	C[C@@H]1CCCCO[C@H](CN(C)C(=O)Nc2ccccc2)[C@H](C)CN([C@H](C)CO)C(=O)c2cc(NC(=O)C3CCCCC3)ccc2O1
23.9[16.7 µM]	CO[C@H]1CC[C@@H]2CCN(C)C(=O)[C@H](C)N(C)C(=O)c3cc(C#N)ccc3OC[C@@H]1O2
14.4	COC(=O)[C@]12C[C@H](CC(=O)N3CCC(c4ccccc4)CC3)C(=O)N(Cc3ccc4c(c3)OCO4)C1=C[C@H](COCc1ccccc1)O[C@@H]2C
-0.4[16.7 µM]	CN1CCN(C(=O)C[C@@H]2C[C@@H]3c4cc(NC(=O)C5CCC5)ccc4O[C@@H]3[C@H](CO)O2)CC1
-3.3[16.7 µM]	CCC(=O)Nc1ccc2c(c1)C(=O)N(C)C[C@H](OC)[C@@H](C)CN(C(=O)CC)[C@@H](C)CO2
3.2[16.7 µM]	CCC(=O)Nc1ccc2c(c1)OC[C@@H](C)N(Cc1nccs1)C[C@H](C)[C@H](OC)CN(C)C2=O
-9.2	COC(=O)C1=C(C)N(Cc2ccccc2C(F)(F)F)C(=NCC2CC2)NC1c1ccc(C(F)(F)F)cc1 (configuration not stated)
19.4[16.7 µM]	C[C@H]1CN([C@@H](C)CO)C(=O)Cc2cc(NC(=O)Nc3ccc(C(F)(F)F)cc3)ccc2O[C@@H]1CN(C)S(=O)(=O)c1ccc(Cl)cc1
-14.9[16.7 µM]	COc1ccccc1-c1cnc2c(c1)C(=O)N([C@H](C)CO)C[C@H](C)[C@H](CN(C)CC1CC1)O2
8.0[16.7 µM]	O=C(C[C@@H]1CC[C@@H]2[C@H](COC[C@H](O)CN2Cc2ccccc2)O1)N1CCOCC1
-4.8[16.7 µM]	C[C@@H]1CCCCO[C@@H](CN(C)C)[C@@H](C)CN([C@H](C)CO)C(=O)c2cc(NS(=O)(=O)c3cn(C)cn3)ccc2O1

(cont.)
HIV Env fusion	SMILES
9.6[16.7 µM]	CO[C@H]1CN(C)C(=O)c2cc(NC(=O)c3cc(C)on3)ccc2OC[C@H](C)NC[C@@H]1C
-33.7[16.7 µM]	CO[C@H]1CN(C)C(=O)c2cc(NC(C)=O)ccc2OC[C@@H](C)N(C(=O)c2cnccn2)C[C@H]1C
-5.4	C=CCN1C(=O)c2n[nH]c(C(C)C)c2C1c1ccc2c(c1)OCO2 (configuration not stated)
6.2[16.7 µM]	CO[C@H]1CN(C)C(=O)c2cc(NC(=O)c3ccc(F)cc3)ccc2OC[C@@H](C)N(C(=O)CN(C)C)C[C@@H]1C
26.5	C=CCCC1CN(Cc2ccc(OC)cc2)S(=O)(=O)c2c(Oc3ccc(OC)cc3)cccc2O1 (configuration not stated)
-17.8	OC(c1ccccc1)(c1ccccc1)C1CCN(CCCOc2cccnc2)CC1
10.4[16.7 µM]	CO[C@H]1CN(C)C(=O)c2cc(NC(=O)C3CC3)ccc2OC[C@@H](C)N(CCC(F)(F)F)C[C@@H]1C
9.1[16.7 µM]	CNC[C@@H]1OCCCC[C@H](C)Oc2ccc(NS(=O)(=O)c3ccc(OC)cc3)cc2C(=O)N([C@H](C)CO)C[C@H]1C
3.8[16.7 µM]	CO[C@@H]1CN(C)C(=O)c2cc(NC(=O)Nc3ccc(C(F)(F)F)cc3)ccc2OC[C@H](C)NC[C@H]1C
0.5[16.7 µM]	C[C@@H]1CN([C@@H](C)CO)C(=O)c2ccccc2-c2ccccc2CO[C@@H]1CN(C)C(=O)NC1CCCCC1
11.9	COC(=O)N1Cc2ccnnc2CC1c1ccccc1-c1ccc(OC)cc1 (configuration not stated)
21.4[16.7 µM]	C[C@H]1CN([C@@H](C)CO)C(=O)c2cccc(NS(C)(=O)=O)c2O[C@H]1CN(C)C(=O)Nc1cccc2ccccc12
-10.0[16.7 µM]	CN1C(=O)c2cc(NS(C)(=O)=O)ccc2OC[C@@H]2O[C@@H](CC(=O)NCc3ccc(-c4ccccc4)cc3)CC[C@H]21
-7.6[16.7 µM]	C[C@H](CO)N1C[C@H](C)[C@@H](CN(C)C(=O)C2CC2)Oc2ncc(C#CC3(O)CCCC3)cc2C1=O
-11.6[16.7 µM]	COc1ccccc1CNC(=O)C[C@@H]1C[C@H]2c3cc(NC(=O)CN(C)C)ccc3O[C@H]2[C@@H](CO)O1
20.5[16.7 µM]	CCC(=O)N[C@@H]1CC[C@@H](CC(=O)NCc2ccccc2F)O[C@@H]1CO
